Bioassay records: PubChem, Johns Hopkins Ion Channel Center
KCNQ2 block: KCNQ2 potassium channel inhibitors, primary screen, cell-based, CHO-K1, FluxOR thallium flux, B-score (AID 2156). O88943. 20 min; active compounds read low; only compounds with negative scores are shown here; some inactives read as strong as hits. B-score at 10 µM. actives 1.1% (n = 310,000);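 active = fluorescence ratio B-score at most minus 3 library SDs, with starting brightness B-score within 2 library SDs, cut at about -5.5 in these data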
Target sequence (O88943 whole entry, looked up): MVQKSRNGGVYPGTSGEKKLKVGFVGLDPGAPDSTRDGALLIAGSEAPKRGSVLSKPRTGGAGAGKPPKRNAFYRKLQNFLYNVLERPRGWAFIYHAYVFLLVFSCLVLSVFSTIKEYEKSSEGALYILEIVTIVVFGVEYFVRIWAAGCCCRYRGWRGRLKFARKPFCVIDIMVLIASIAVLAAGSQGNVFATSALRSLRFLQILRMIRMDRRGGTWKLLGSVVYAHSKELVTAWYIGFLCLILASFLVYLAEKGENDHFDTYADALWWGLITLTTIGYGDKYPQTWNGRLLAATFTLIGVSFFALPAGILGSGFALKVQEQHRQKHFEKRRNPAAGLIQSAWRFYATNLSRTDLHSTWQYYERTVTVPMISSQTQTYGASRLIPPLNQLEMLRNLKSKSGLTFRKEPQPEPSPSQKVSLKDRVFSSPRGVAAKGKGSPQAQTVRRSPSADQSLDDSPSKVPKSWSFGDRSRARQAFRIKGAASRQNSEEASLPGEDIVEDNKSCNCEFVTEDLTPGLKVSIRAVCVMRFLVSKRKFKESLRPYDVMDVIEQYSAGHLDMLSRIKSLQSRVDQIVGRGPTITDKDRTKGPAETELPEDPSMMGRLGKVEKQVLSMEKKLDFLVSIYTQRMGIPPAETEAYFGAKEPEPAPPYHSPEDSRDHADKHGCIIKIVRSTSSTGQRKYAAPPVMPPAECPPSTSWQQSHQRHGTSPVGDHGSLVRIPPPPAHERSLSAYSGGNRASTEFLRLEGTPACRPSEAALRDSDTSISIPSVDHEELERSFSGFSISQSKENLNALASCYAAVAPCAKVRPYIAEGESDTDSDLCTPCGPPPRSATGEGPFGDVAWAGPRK
KCNQ2 block baseline: recorded beside KCNQ2 block, whose call it bears; B-score; measured here: initial fluorescence intensity artifact check;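 brightness before thallium and not channel activity; 0 = typical well and far values either way flag optical interference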
* hit, by the source's call; i = inactive.

Start of the data: the first 4 compounds (preview)
SMILES	KCNQ2 block	KCNQ2 block baseline
Cc1c(C(=O)C(=O)NCCc2ccc(S(N)(=O)=O)cc2)c2ccccc2n1C	i	0.06
O=C(Nc1cccc(F)c1)[C@@H]1CCCN1	i	1.4
CCN1C(=O)c2cccc3c(S(=O)(=O)Nc4ccccc4)ccc1c23	i	2.4
COc1ccccc1CNC(=O)[C@H](Cc1c[nH]c2ccccc12)NC(=O)[C@@H]1Cc2ccccc2CN1	-6.8*	1.8*

All compounds of this part (from the top)
SMILES	KCNQ2 block	KCNQ2 block baseline
Cc1c(C(=O)C(=O)NCCc2ccc(S(N)(=O)=O)cc2)c2ccccc2n1C	i	0.06
O=C(Nc1cccc(F)c1)[C@@H]1CCCN1	i	1.4
CCN1C(=O)c2cccc3c(S(=O)(=O)Nc4ccccc4)ccc1c23	i	2.4
COc1ccccc1CNC(=O)[C@H](Cc1c[nH]c2ccccc12)NC(=O)[C@@H]1Cc2ccccc2CN1	-6.8*	1.8*
O=C(NCC1CCN(c2ccc(S(=O)(=O)N3CCOCC3)cc2)CC1)Nc1ccccc1	i	0.3
CCOC(=O)C1CCN(C(=O)c2ccccc2CCc2ccccc2)CC1	i	-2.3
O=C(CCC(=O)Nc1ccccc1)NNS(=O)(=O)c1ccccc1[N+](=O)[O-]	i	-1.5
CCOc1ccc(OCc2ccc(C(=O)N3CCCC(C)C3)cc2)cc1 (stereo not given)	i	0.04
Cc1cc(/C=C2/NC(=O)NC2=O)c(C)n1-c1ccc(N2CCOCC2)cc1	i	0.03
Cc1n[nH]c(C)c1Cc1ccc(C(=O)O)cc1	i	0.51
Cc1nc2ccc(NC(=O)c3ccccc3)cc2s1	i	0.2
COc1ccccc1CNc1nc2nc(C)c(Cl)c(=O)n2[nH]1	i	-1.7
CCCCCNc1nc(-c2ccccc2)nc(-n2ccnc2)n1	i	1.6
Cc1ccc(NP(=O)(Nc2ccc(C)cc2)Nc2ccc(C)cc2)cc1	i	0.2
COc1ccc2cc(C(c3nnnn3C3CCCC3)N3CCCCCC3)c3nnnn3c2c1 (stereo not given)	i	0.51

Sorted by count of non-hydrogen atoms (smallest number first): 3 of the compounds above.
SMILES	KCNQ2 block	KCNQ2 block baseline
O=C(Nc1cccc(F)c1)[C@@H]1CCCN1	i	1.4
COc1ccccc1CNc1nc2nc(C)c(Cl)c(=O)n2[nH]1	i	-1.7
COc1ccc2cc(C(c3nnnn3C3CCCC3)N3CCCCCC3)c3nnnn3c2c1 (stereo not given)	i	0.51

Additional records.
SMILES	KCNQ2 block	KCNQ2 block baseline
O=C(Nc1ccc(F)cc1)c1c(Cl)nc2ccccn12	i	-1.9
COc1cc(Br)c(CNc2cc(C)ccc2C)cc1OC	i	1.2
CCc1ccccc1NC(=O)COC(=O)C1CC(=O)N(c2ccc(F)cc2)C1 (stereo not given)	i	-0.55
O=C(Nc1ccccc1)N1CCCN(c2nccc(C(F)(F)F)n2)CC1	i	-0.29
CC(C)c1ccccc1NS(C)(=O)=O	i	0.47
O=C(c1ccc2nccnc2c1)N1CCCC(Nc2ccc(F)c(F)c2)C1 (stereo not given)	i	-0.51
COc1ccc(/C=C2\SC(=S)N(CCC(=O)Nc3ccc(O)cc3)C2=O)cc1	i	1.3
Cc1nc2ccccn2c1C(=O)NC1CCCC1	i	-1.1
COc1ccc(C)cc1Cn1nnc2ccccc21	i	-1.7
N#CC(C(=O)NC1CCCCC1)c1nc2ccccc2nc1N1CCN(c2ccc(F)cc2)CC1 (stereo not given)	-5.8*	-0.34*
O=C(Cc1ccccc1)NN1C(=O)c2ccccc2C1=O	i	-0.12
COCCCNC(=O)CSC1=Nc2ccccc2C2=NC(c3ccccc3)C(=O)N12 (stereo not given)	i	0.01
Cc1cc(C)cc(NC(=S)NCc2cccs2)c1	i	0.02
CCOC(=O)c1cc(CNC(=O)c2c(C)oc3c2CCCC3)c(C)o1	i	3.5
Cc1cc(Cl)ccc1NC(=S)NC(C)(C)C	i	2.3
COc1ccc(N2CCN(C(=O)NC(=O)c3ccc(Cl)cc3)CC2)cc1	i	0.45
CC(C(=O)O/N=C(\N)c1cccnc1)c1ccc([N+](=O)[O-])cc1 (stereo not given)	i	0.28
COc1ccc(CCN2CCCn3c2nc2c3c(=O)[nH]c(=O)n2C)cc1OC	i	-0.37
CN(C)Cc1c(C(=O)N/N=C/c2ccccc2OCc2c(F)cccc2Cl)nnn1-c1nonc1N	i	-2.8
CC(=O)Nc1cccc(N2C(=O)CCC2=O)c1	i	-0.56
O=S(=O)(Nc1ccncc1Cl)c1cc(Cl)ccc1Cl	i	1.1
CCOc1cc(C(=O)N2CCN(C/C=C/c3ccccc3)CC2)cc(OCC)c1OCC	i	0.51
COc1ccc(-c2cc(=O)oc3cc(OCC(=O)NCC4CCC(C(=O)O)CC4)ccc23)cc1 (stereo not given)	i	2.1
OC[C@H]1O[C@H](OC[C@H]2O[C@H](OC[C@H]3O[C@H](O[C@]4(CO)O[C@H](CO)[C@@H](O)[C@@H]4O)[C@H](O)[C@@H](O)[C@@H]3O)[C@H](O)[C@@H](O)[C@H]2O)[C@H](O)[C@@H](O)[C@H]1O	i	2.5
CCOC(=O)c1c(C)nc2sc3c(=O)n(-c4ccc(C(C)=O)cc4)cnc3c2c1-c1ccc(OC)cc1	i	0.99
CCOC(=O)CNC(=S)N(CCCN1CCN(C)CC1)Cc1cccs1	i	0.28
O=C(Nc1cccc(NC(=O)c2ccc(-c3ccc(Br)cc3)o2)c1)c1ccco1	i	-0.51
CCCCn1c(N)c(N(CC(C)C)C(=O)c2cc(-c3ccncc3)nc3ccccc23)c(=O)[nH]c1=O	i	0.2
COC(=O)c1ccc(C2C(Oc3ccccc3)C(=O)N2CCc2ccc(F)cc2)cc1 (stereo not given)	i	0.42
COc1ccc(OC)c(NC(=O)NCCN2CCN(c3ccccc3)CC2)c1	i	1.2
CC(C)OP(=O)(c1ccc(N(C)C)cc1)C(O)c1ccc(Br)cc1 (stereo not given)	i	-1.1
O=C(Nc1ccc(C(=O)OC2CCCCC2)cc1)c1ccncc1	i	0.45
Clc1ccsc1-c1ccc2ccccc2n1	i	-0.01
c1ccc(Cc2nnc3sc(-c4ccncc4)nn23)cc1	i	0.34
N#C/C(=C\c1cccnc1)C(=O)Nc1ccc(S(N)(=O)=O)cc1	i	0.61
C=CCN(CC=C)C(=O)C1CC(=O)N(c2ccc(Br)cc2)C1 (stereo not given)	i	1.4
COc1cc2ncnc(NCc3ccco3)c2cc1OC	i	0.75
CN1CCN(CC(=O)c2ccccc2F)CC1	i	-0.89
C=Cn1ccnc1P(=S)(c1ccc2c(c1)c1ccccc1n2CC)c1nccn1C=C	i	-1.4
CCOC(=O)c1c(-c2ccc(C)cc2)csc1NC(=O)CCSc1nnc2ccccn12	i	-0.84
COc1ccc(Cl)cc1NC(=O)COC(=O)C(CC(C)C)N1C(=O)C2CC=CCC2C1=O (stereo not given)	-5.8*	-0.49*
CC(/C=N/NC(=O)CSc1nc2ccccc2n1C)=C\c1ccco1	i	2.5
CNCCC(Oc1ccc(C(F)(F)F)cc1)c1ccccc1 (stereo not given)	i	1.6
CCCSc1nnc(-c2ccccc2NC(=O)CC)c(=O)[nH]1	i	-4.2
Cc1nc2ccc(NC(=O)c3cccnc3)cc2s1	i	2.9
CCn1cc([N+](=O)[O-])c(C(=O)Nc2ccc(Br)cn2)n1	i	1.9
CCOC(=O)c1c(C)[nH]c(C)c1S(=O)(=O)NCC1CCN(Cc2cccc(Cl)c2)CC1	i	-0.02
COC(=O)c1ccccc1NC(=O)C/C(C)=N/NC(=O)Cc1ccc(Cl)cc1	i	1.7
O=C(NC(=S)NC1C2CC3CC(C2)CC1C3)C12CC3CC(CC(C3)C1)C2 (stereo not given)	i	-0.1
COc1ccc(-c2cc(C(F)F)n3ncc(C(=O)n4ccnc4C)c3n2)cc1	i	0.58
COc1cc(/C=C/c2ccc3cccc(O)c3n2)cc(Cl)c1OC	i	3
O=C(Cc1ccc([N+](=O)[O-])cc1)N1N=C(c2ccncc2)CC1(O)C(F)(F)F (stereo not given)	i	0.02
CC(C)NC(=O)/C(C#N)=C\c1ccc(N(C)C)o1	i	11
CCCCn1c(C)cc2cc(O)ccc21	i	0.68
N#CCc1nn(-c2ccc(Cl)cc2)c(N)c1C#N	i	0.14
COC(=O)c1ccc2[nH]c([C@H](C)O)c([C@H](C)O)c2c1	i	0.01
Cc1cc(C)c(S(=O)(=O)N2CCCOC2CNC(=O)C(=O)NCCC2=CCCCC2)c(C)c1 (stereo not given)	i	1.7
COc1ccccc1N(CC(O)CN(c1ccccc1)S(C)(=O)=O)S(=O)(=O)c1ccccc1 (stereo not given)	i	0.17
NC(N)=N/N=C/c1ccc(OCc2ccccc2Cl)cc1	-6.2*	0.5*
CCc1ccc(N2Cc3ccccc3C2)cc1	i	-0.94

Single records, as listed above.
Results for `CC(C)NC(=O)/C(C#N)=C\c1ccc(N(C)C)o1` = KCNQ2 block: i; KCNQ2 block baseline: 11
Results for `CCc1ccc(N2Cc3ccccc3C2)cc1` = KCNQ2 block: i; KCNQ2 block baseline: -0.94
Results for `NC(N)=N/N=C/c1ccc(OCc2ccccc2Cl)cc1` = KCNQ2 block: -6.2*; KCNQ2 block baseline: 0.5*

(listing goes on)
SMILES	KCNQ2 block	KCNQ2 block baseline
Cc1cc(C)n(CCC(=O)N/N=C/c2ccc(Cl)c([N+](=O)[O-])c2)n1	i	-0.53
CCCN(CC(=O)Nc1ccccc1OC)C(=O)c1cc(S(=O)(=O)NCc2ccccc2)ccc1C	i	0.07
Cc1cccc(NC(=O)CSc2nc3ccccc3nc2N2CCCCC2)c1	i	1.2
Cc1ccc(C(=O)NCCSc2ccc(Cl)cc2)cc1[N+](=O)[O-]	i	-1.4
CC(C)(C)c1ccc(OCCNC(=O)Cc2ccc(F)cc2)cc1	i	0.4
CCOC(=O)c1nn(-c2ccc3c(c2)OCCO3)cc1O	i	-1.1
COCCn1c(C)cc(C(=O)CSc2ccc3ccccc3n2)c1C	i	-0.63
COc1ccc2cc(OCC(=O)NNC(=O)Nc3ccc(OC)c(OC)c3)ccc2c1	i	-2.2
COc1cccc(C2C(C(=O)c3cccs3)=C(O)C(=O)N2c2cc(C)on2)c1 (stereo not given)	i	0.31
CCC/C=N/NC(=O)C1COc2ccccc2O1 (stereo not given)	i	-0.63
O=C(NNC(=O)c1sccc1-n1cccc1)c1cccs1	i	-0.8
CC1=NC(C(F)(F)F)(C(F)(F)F)C2=C(CC(C)(C)CC2=O)N1Cc1ccco1	i	-0.31
COc1ccc(-c2cn3cccnc3n2)cc1NC(=O)c1ccc(Br)o1	i	-0.14
CCn1c(N)c(C(=O)NCC2CCCO2)sc1=S (stereo not given)	i	0.72
Cc1nnc(SCc2nc3ccccc3s2)n1-c1ccccc1	i	-0.03
O=C1C=C(Nc2ccc(Cl)cc2)CC(c2ccc(Cl)cc2)C1 (stereo not given)	i	0.09
COc1cc(-c2noc(C)c2C(=O)NCCc2c[nH]c3ccccc23)cc(OC)c1OC	i	-0.05
COC(=O)c1ccc(CSc2nc3ccc(S(=O)(=O)N4CCOCC4)cc3[nH]2)cc1	i	2.4
CC1CCN(Cc2cc(=O)oc3cc4c(cc23)CCCC4)CC1	i	0.47
O=C(c1cccc(S(=O)(=O)N2CCCC2)c1)N1CCCC(C(F)(F)F)C1 (stereo not given)	i	0.73
COC(=O)c1ccc(Oc2ccc(C(C)(C)C)cc2)c([N+](=O)[O-])c1	i	-1.4
NS(=O)(=O)c1ccc(NC(=S)NC(=O)c2cccc(Br)c2)cc1	i	0.08
Cc1ccccc1-c1nnc(CS(=O)(=O)c2ccccc2)o1	i	-1.7
Cn1c(C(=O)NCCCN2CCc3ccccc3C2)cc2c(=O)n(C)c3ccccc3c21	i	0.98
COc1cccc2sc(N(CCCN(C)C)C(=O)C(c3ccccc3)c3ccccc3)nc12	i	-1.2
COc1ccccc1CNc1ccc(CNc2ncn[nH]2)cc1	i	3
CC1CCCC(C)N1CC(O)COc1ccc(Cl)cc1 (stereo not given)	i	-0.74
NC(=O)NOCc1ncc(C(F)(F)F)cc1Cl	i	0.35
CS(=O)(=O)N(CC(=O)N1CCN(c2ccc(F)cc2)CC1)C1CCCCC1	i	0.06
CC(C)(C)NS(=O)(=O)c1ccc(OCC(=O)Nc2ccc3c(c2)OCCO3)cc1	i	-0.05
Cc1cc(S(=O)(=O)/N=C(\N)c2ccc(C(N)=O)cc2)cc(C)c1F	i	0.62
COc1ccc(C2C(C(=O)NCc3ccccn3)CCC(=O)N2c2cc(OC)c(OC)c(OC)c2)cc1 (stereo not given)	i	0.35
O=C1C2C3C=CC(C3)C2C(=O)N1CNc1ccc(O)cc1 (stereo not given)	i	-0.39
O=C(Cn1cnnn1)NCCc1ccc(Cl)cc1Cl	i	-0.83
O=C(CSc1nc2ccccc2c(=O)n1C1CC1)NCc1ccccc1	i	-1.3
CC(C)(C)NC(=O)NC(=O)CN1CCN(c2ccccc2O)CC1	i	1.4
Nn1c(SCC(=O)Nc2c(Cl)cccc2Cl)nncc1=O	i	-0.77
CC(C)c1ccc(NC(=O)CN2CCN(C(=O)C3CCCO3)CC2)cc1 (stereo not given)	i	1.6
COc1cccc(C(C(=O)NC(C)(C)C)N(C(=O)CCC(=O)Nc2cc(C)on2)c2ccc3c(c2)OCCO3)c1OC (stereo not given)	i	-0.46
O=C(CN1CCN(Cc2ccccc2F)C1=O)NCc1cccnc1	i	0.85
CCCCN(C)C(=O)c1cc2c(s1)-c1ccccc1S(=O)(=O)C2	i	0.06
CCOC(=O)N1CCc2c(sc3c2c(=O)n(Cc2ccccc2)c(=O)n3Cc2ccc(C)cc2)C1	-7.7*	-1.6*
COc1ccccc1CNC(=O)Cc1ccc(Br)cc1	i	2.5

These rows are one share of the data. The share of hits here may be higher or lower than overall.
